High-throughput results from PubChem BioAssay.
SmPrx2 inh: blocks S. mansoni peroxiredoxin 2 enzymatic activity; S. mansoni Prx2 activity coupled to TGR/GSH (TGR is thioredoxin glutathione reductase), NADPH fluorescence loss, qHTS; some inactives read as strong as hits; Potency, µM; 0.07% of 65,000 active; active means full or partial inhibition curve with a strong effect at the top dose; inconclusive means weaker partial or single-point curve; inactive means no accepted curve; note: series up to 57 µM; many of its hits are not listed in these tables
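Activity is read as the drop in NADPH fluorescence (365/450 nm), recorded every 30 sec for 8 min after H2O2 addition. Prx2 is coupled to TGR-driven NADPH oxidation through glutathione, in phosphate buffer pH 7.4.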
Anthrax LT inh: blocks cellular internalization of anthrax lethal toxin | Cells, anthrax lethal toxin internalization, FRET ratio (460/530) | Potency, µM (series often up to 40 µM), without a hit: top-dose activity change, negative = inhibition, usual class: inhibitors | 0.67% of 70,000 active; active = well fitted falling ratio curve with the 530 nm signal flat; inconclusive = other ratio curves, or a change in one channel alone; inactive = flat curves in the ratio and both channels; the % refers to the ratio; note: % is set by controls: 0 for no effect and ±100 for the full control effect; nearly all actives have a fitted effect of over 50% in size; tested in ME-180 cells; beta-lactamase reporter
* hit, by the source's call; ? = inconclusive; nt = no result given; & = joins results of further samples; [ ] = another dose, or the depositor's remark. Potency is the fitted concentration of half-maximal effect.

Start of the listing, in advance (2 entries):
entry	structure	SmPrx2 inh	Anthrax LT inh
1	CN(C)[C@@H]1C(=O)C(C(N)=O)=C(O)[C@]2(O)C(=O)C3=C(O)c4c(O)ccc(Cl)c4[C@H](O)[C@H]3C[C@@H]12	>57&>57	-10%[3.58 µM]
2	Cn1c(=O)n(CC(=O)N2CCC3(CC2)OCCO3)c(=O)c2ccccc21	>57	-3%

The whole of this part, from the start:
entry	structure	SmPrx2 inh	Anthrax LT inh
1	CN(C)[C@@H]1C(=O)C(C(N)=O)=C(O)[C@]2(O)C(=O)C3=C(O)c4c(O)ccc(Cl)c4[C@H](O)[C@H]3C[C@@H]12	>57&>57	-10%[3.58 µM]
2	Cn1c(=O)n(CC(=O)N2CCC3(CC2)OCCO3)c(=O)c2ccccc21	>57	-3%
3	CCS(=O)(=O)N1CCN(CC2CC3C=CC2C3)CC1 (stereo not given)	>57	6%
4	Cc1cccc(-c2c3c(=O)n(C)c(=O)n(C)c3c3cccnn23)c1	>57	-2%
5	O=c1[nH]c(=O)n(CCOc2ccc(Cl)cc2)cc1Br	>57	?
6	CCOC(=O)CS(=O)(=O)c1nc(-c2ccccc2)cc(C(F)(F)F)n1	>57	3.2µM*
7	CCOC(=O)C1CCCN(CC(=O)Nc2c(C(=O)OC)[nH]c3ccc(C)cc23)C1 (stereo not given)	>57	21%
8	CCc1cc2c(=O)c(-c3nc4ccccc4[nH]3)coc2c(CN2CCCC(C)C2)c1O (stereo not given)	>57	6%
9	O=C(NCCC1=CCCCC1)C1CCCN(S(=O)(=O)c2cnc[nH]2)C1 (stereo not given)	>57	9%
10	O=C(Cn1cnc2c(nnn2Cc2ccc(Cl)cc2)c1=O)N1CCN(c2ccccc2)CC1	>57	?
11	Clc1ccccc1-c1nc(Nc2ccncc2)c2ccccc2n1	>57	?
12	CCN1CCCC1CNC(=O)Cn1cccc1C(=O)c1ccccc1 (stereo not given)	>57	-7%
13	COc1cc(C2C3=C(CC(C)(C)CC3=O)Nc3c2c(=O)[nH]c(=O)n3Cc2ccccc2)ccc1O (stereo not given)	>57&>57	?
14	Cc1cc(Cl)cc2c1NC(=O)[C@]21[C@@H]2C(=O)N(Cc3ccccc3)C(=O)[C@@H]2[C@@H]2CCCN21	>57	-13%
15	O=C(CCCCCN1C(=O)c2ccccc2C1=O)NCc1ccco1	>57	-21%
16	COc1ccc(N(CC(=O)N2CC=C(c3ccccc3)CC2)S(=O)(=O)c2c(C)noc2C)cc1	>57	?
17	COc1ccccc1CNC(=O)CCS(=O)(=O)c1cccs1	>57	-26%
18	CCn1c(SCC(=O)OCc2ccccc2)nc2c1c(=O)n(C)c(=O)n2C	>57	6%
19	Cc1ccc(C(=O)N2CCN(c3ccc(NC(=O)c4cccnc4)cc3)CC2)cc1	>57	2%
20	O=C(Nc1nccs1)c1cnccn1	>57	?

Entries of single compounds, quoted from the list.
Cn1c(=O)n(CC(=O)N2CCC3(CC2)OCCO3)c(=O)c2ccccc21 across the screens: SmPrx2 inh = >57; Anthrax LT inh = -3%
Cc1ccc(C(=O)N2CCN(c3ccc(NC(=O)c4cccnc4)cc3)CC2)cc1 across the screens: SmPrx2 inh = >57; Anthrax LT inh = 2%

New compounds follow.
entry	structure	SmPrx2 inh	Anthrax LT inh
21	Cn1c(=O)c(-c2ccccc2)nn2c3ccccc3nc12	>57	?
22	CC(C)(C)OC(=O)N1Cc2ccccc2C[C@H]1C(=O)O	>57	nt
23	COc1cccc(C(=O)Nc2c3c(nn2-c2ccccc2C)CS(=O)C3)c1OC (stereo not given)	>57	7%
24	Cc1cc(NCCCN)nc(-c2ccccc2O)n1	>57	-2%
25	COC(=O)CC1C(=O)NCCN1C(=O)NC1CCCCC1 (stereo not given)	>57	8%
26	NC1=NC(=O)CC(C(=O)NCCc2ccccc2)S1 (stereo not given)	>57	-12%
27	CCCc1cc2c(cc1NS(=O)(=O)c1ccc(CCNC(C)=O)cc1)OCO2	>57	-11%
28	Cc1cc(O)c2c(-c3ccccc3)cc(=O)oc2c1	>57	-9%
29	O=C1c2ccccc2C2(c3ccc(Cl)cc3)NCCN12 (stereo not given)	>57	6%
30	CC1CCCCN1C(=O)CSc1nc2ccsc2c(=O)n1Cc1ccccn1 (stereo not given)	>57	1%
31	c1ccc(-c2cnc(-c3ccc(-c4ncc(-c5ccccc5)o4)cc3)o2)cc1	>57	11%[8 µM]
32	C=C(C)C#N	nt	-3%
33	Cc1cc(C)c(C(=O)CC2(O)C(=O)Nc3ccccc32)cc1C (stereo not given)	>57	-4%
34	O=C(CN1CCC(NC(=O)c2ccc(F)cc2)CC1)NCc1ccccc1F	>57	3%
35	FC(F)(F)c1ccccc1-c1cncnc1NCc1ccccc1	>57	-4%
36	Cc1c(Nc2ncccc2C(=O)O)cccc1C(F)(F)F	>57	0%[3.58 µM]
37	c1ccc(-c2cc3c(nc2-c2ccccc2)CCNC3)cc1	nt	-15%[8 µM]
38	O=C(Nc1nccs1)c1cc(S(=O)(=O)N2CCOCC2)ccc1Cl	>57	3%
39	Cc1ccc(-c2noc(CCC(N)=O)n2)cc1	>57	nt
40	Cc1noc(/C=C/N(C)C)c1S(=O)(=O)N1CCCC(C(=O)N2CCc3ccccc32)C1 (stereo not given)	>57	-2%

Carrying on.
entry	structure	SmPrx2 inh	Anthrax LT inh
41	CCC[C@@H]1C[C@@]1(CCC)C(NC(=O)c1cccs1)c1ccc(Cl)cc1 (stereo not given in full)	>57	-21%
42	Cc1ccc2c(c1)C1CN(C)CCC1N2S(=O)(=O)c1ccccc1 (stereo not given)	>57	-5%
43	CCC(C)(C)n1nnnc1C(c1ccc(OC)c(OC)c1)N1CCN(c2ccccc2)CC1 (stereo not given)	>57	?
44	O=C(NCCN1CCN(c2ccccc2F)CC1)C1CC(=O)N(C2CCCC2)C1 (stereo not given)	>57	9%
45	CCOC(=O)C1CCN(c2c(NCCCN(CC)c3ccccc3)c(=O)c2=O)CC1	>57	?
46	O=C(Nc1cccc(Cl)c1)OCc1ccccn1	>57	-7%
47	Cc1ccnc(N)c1	>26	-12%
48	CCOC(=O)CSc1nnc([C@@H](NC(=O)OC(C)(C)C)C(C)C)o1	>57	?
49	Cc1ccccc1C=O	nt	-1%
50	CCOC(=O)N1CCN(C(=O)c2ccc3c(c2)ncn3C2CCCC2)CC1	>57	?
51	O=C1[C@H]2[C@H]3[C@H](O)[C@H](O)C/C(=N/OCc4ccccc4)[C@@H]3CC[C@@H]2C(=O)N1Cc1ccccc1	nt	-2%[8 µM]
52	Cc1ccccc1NC(=O)c1cnn(-c2ccccc2)c1NC(=O)c1ccco1	>57	0%
53	COC(=O)COc1ccc(S(=O)(=O)N2CCN(c3ccccc3F)CC2)cc1C	>57	2%
54	C=CCOc1ccc(/C(CC)=N/O)c(OC)c1	nt	-5%
55	CC(=O)O[C@H]1C[C@@]2(C)[C@H](C[C@@H](O)[C@H]3[C@@]4(C)CC[C@@H](O)[C@@H](C)[C@H]4CC[C@@]32C)C1=C(CCC=C(C)C)C(=O)O	>57	-8%[3.58 µM]
56	O=C(c1cnccn1)N1CCC[C@@]2(CCN(c3ccccn3)C2)C1	>57	?
57	Cc1cc(C)nc(SCC(=O)Nc2ncc3c(n2)CCCC3=O)n1	>57	?
58	CC1=CC(=O)C2=C(C)CC[C@@H]3[C@H](OC(=O)[C@H]3C)[C@H]12	>57	?
59	Nc1cc(Cl)ccc1Oc1ccccc1	>57	4%
60	c1ccc(CSc2ncccn2)cc1	>57	-14%

Other records:
entry	structure	SmPrx2 inh	Anthrax LT inh
61	COc1ccc(Cl)cc1NC(=O)Cn1cccc1	>57	-2%
62	O=S(=O)(/N=C/N1CCOCC1)c1ccc(Cl)cc1	>57	5%
63	CCc1ccc(NC(=O)c2cccnc2)cc1	>57	-17%
64	COC(=O)c1cccc(NC(=O)c2nn(C)c(=O)c3ccccc23)c1	>57	0%
65	COC(=O)C1=C(N)Oc2cc(C)n(Cc3ccncc3)c(=O)c2C1c1cccnc1 (stereo not given)	>57	?
66	O=C(O)Cn1c(P(=O)(O)c2ccccc2)nc2ccccc21	>57	-8%
67	CCC[C@@H]1C[C@@]1(CCC)C(NS(=O)(=O)c1cccc2cccnc12)c1ccc(Cl)cc1 (stereo not given in full)	>57	-6%
68	Cc1noc(C(=O)Nc2ccc3c(c2)OCO3)c1Cl	>57	?
69	Cc1sc2ncn3c(C)nnc3c2c1C	>57	-1%
70	Nn1c(SC/C=C/c2ccccc2)nnc1-c1cccnc1	>57	-22%
71	O=C(CSc1nc(-c2ccco2)cc(C(F)(F)F)n1)NCCCn1ccnc1	>57	-13%
72	CC1(C)NC(=O)N(CC(O)CN2CCCCC2)C1=O (stereo not given)	>57	0%
73	COC(=O)C1=C(C)N(Cc2ccccc2)[C@]23O[C@](C(=O)OC)(C(=O)N2C1c1ccccc1)C(c1ccccc1)C3C(=O)c1ccccc1 (stereo not given in full)	nt	-11%&-21%[8 µM]
74	CCS(=O)(=O)Nc1cccc(C(=C2CCCCC2)c2cnc[nH]2)c1	>57	19%
75	CC(C)Oc1ccc(NC(N)=O)cc1	>57	?
76	O=S1(=O)N=C(Nc2ccc(O)c(CN3CCCCC3)c2)c2ccccc21	>57	4%
77	COc1ccc(-c2noc(CSc3nc(N)c(-c4ccccc4)c(=O)[nH]3)n2)cc1OC	>57	-17%
78	CCCCCC[C@H]1C(=O)O[C@@H](C)[C@H](NC(=O)c2cccc(NC=O)c2O)C(=O)O[C@@H](C)[C@@H]1OC(=O)CC(C)C	>57	?
79	O=C(C1CCCO1)N1CCC(O)(c2ccccc2)CC1 (stereo not given)	>57	-5%
80	C[C@H](CN(C)C)C(O)(c1ccccc1)c1ccccc1	>57	-6%[8 µM]

(more compounds)
entry	structure	SmPrx2 inh	Anthrax LT inh
81	COc1ccc(C2N3CC4(C)CN2CC(C)(C3)C4=O)cc1OC (stereo not given)	>57	0%
82	Cc1ccc(-c2cc(C(F)F)nc(NCc3cccnc3)n2)cc1	?	13%
83	COc1ccccc1NC(=O)CN1C(=O)CCS(=O)(=O)c2ccccc21	>57	-13%
84	O=C(Nc1ccc2c(c1)OCO2)c1cc(C2CC2)on1	>57	?
85	COC(=O)CSc1nc(NC(C)C)nc(N2CCOCC2)n1	>57	-11%
86	COc1ccc(C(=O)COC(=O)CN2C(=O)NC(C)(C)C2=O)cc1OC	>57	1%
87	COC(=O)Nc1c(C(=O)OC)cc(OC)c(OC)c1OC	nt	1%
88	O=c1c(-c2ccc(F)cc2)nc2cnc(Nc3ccccc3)nc2n1Cc1cccs1	>57	?
89	CCOC(=O)C1CN(C)CCC1=O (stereo not given)	>57	-6%
90	COC(=O)c1ccc(Nc2cc(C)nc3nc(C)nn23)cc1	>57	7%
91	O=C1c2ccccc2N2C(=O)c3ccccc3C2N1Cc1ccco1 (stereo not given)	nt	-12%
92	CC(C)N(C(=O)CSc1nnc(-c2cc3ccccc3cc2O)n1Cc1ccco1)C(C)C	>57	?
93	Cc1cccc(-n2c(N)cc(=O)[nH]c2=S)c1C	>57	20%
94	CCCCN(CC)S(=O)(=O)c1cccc2cccnc12	>57	?
95	O=C(c1cc(C2CC2)on1)N1CCN(C(c2ccccc2)c2ccccc2)CC1	>57	17%
96	CC(=O)c1cc(-c2ccccc2)n(CC(=O)N2CCC(N3CCCCC3)CC2)c1C	>57	3%
97	CCCCC[C@H](O)CCCC(=O)O	>57	6%
98	Cc1ccc(S(=O)(=O)CCC(=O)OCC(=O)Nc2cc(C)on2)cc1	>57	-9%
99	CCn1nccc1C(=O)Nc1cc(Cl)ccc1Cl	>57	-16%
100	CNc1nc(OC)nc(N2CCOCC2)n1	>57	11%

Carrying on.
entry	structure	SmPrx2 inh	Anthrax LT inh
101	COc1ccc(NC(=O)N2CC[C@@]3(CCCN(C(=O)c4cccn4C)C3)C2)cc1	>57	?
102	O=C(CSc1nc(-c2ccccc2)cc(=O)[nH]1)N1CCOCC1	>57	7%
103	Cn1c(SCC(=O)N2CCCCC2)nnc1-c1ccc(S(=O)(=O)N2CCOCC2)cc1	>57	20%
104	Cc1cc(NC(=O)c2ccc3c(c2)C(=O)N(C2CCCCC2)C3=O)no1	nt	-11%
105	Cc1nc(Nc2ccccc2)c2nc(-c3ccccc3)n(CCN3CCOCC3)c2n1	nt	-29%
106	Cc1ccccc1NC(=O)C1CCCN(S(=O)(=O)c2cnc[nH]2)C1 (stereo not given)	>57	-4%
107	COCC(=O)N1CCC2(CCCN(c3ccncc3)C2)CC1	>57	4%
108	COCCNC(=O)CSCc1nc(-c2ccc(SC)cc2)oc1C	>57	6%
109	CCOC(=O)c1ccc2c(c1)nc(SCc1cn3ccsc3n1)n2CC	>57	10%
110	N[C@@H]1C[C@H]1c1ccccc1	>57	-9%
111	O=C1c2ccccc2C(O)(Cc2ccccc2)N1Cc1ccco1 (stereo not given)	>57	-3%
112	COc1ccc(OC)c(-c2cc(C(=O)Nc3c(C)nn(Cc4ccccc4C)c3C)no2)c1	>57	-28%
113	O=P(O)(O)CCP(=O)(c1ccccc1)c1ccccc1	>57	-8%
114	CCOC(=O)c1ccc(N2Cc3cc(C)c(C)cc3C2)cc1O	>57	-3%
115	CCOc1ccc(NC(=O)Cn2nnc(-c3ccccc3NC(=O)C3CC3)n2)cc1	>57	-10%
116	CCCOc1ccccc1C1NC(=O)NC(C)=C1C(=O)OCCOC(C)C (stereo not given)	nt	2%
117	CC1CCCCN1CC(=O)NCc1ccc2c(c1)OCO2 (stereo not given)	>57	5%
118	O=C(NCCN1CCOCC1)Nc1ccc(Cl)cc1Cl	>57	-3%
119	Cc1csc(NC(=O)c2ccccc2O)n1	>57	nt

Some of the compounds tested; rates above refer to the full screens.
